Bioassay records (PubChem BioAssay)
GALR2 ag – GALR2 receptor agonists, primary screen, cell-based | Galanin receptor type 2 (Homo sapiens), O43603 | GALR2-expressing cells, agonist activation read-out | activation, %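 (tested at 5 µM)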 | actives 0.48% (n = 140,000);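 active = above mean plus 3 SD of all compounds, about 5% in these data, not always enough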;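 also: 0% = vehicle buffer wells and 100% = reference agonist at full effect; tested in CHO reporter cells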
Target sequence (O43603 whole entry, looked up): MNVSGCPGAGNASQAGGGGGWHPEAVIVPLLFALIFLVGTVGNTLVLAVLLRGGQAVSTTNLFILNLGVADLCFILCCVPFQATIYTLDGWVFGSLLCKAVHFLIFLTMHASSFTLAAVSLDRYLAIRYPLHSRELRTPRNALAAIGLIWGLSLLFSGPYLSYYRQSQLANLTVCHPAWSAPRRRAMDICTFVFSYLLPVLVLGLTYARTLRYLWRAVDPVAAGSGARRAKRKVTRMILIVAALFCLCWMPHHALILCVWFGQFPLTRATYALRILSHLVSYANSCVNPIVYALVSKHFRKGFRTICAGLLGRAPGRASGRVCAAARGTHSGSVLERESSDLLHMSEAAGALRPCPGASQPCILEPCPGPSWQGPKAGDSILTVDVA
PKD1 inh – inhibitors of human PKD1 kinase, biochemical, fluorescence polarization; inhibition, %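 (about 10 µM by stock and volumes)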; PKD1 kinase fluorescence polarization assay; AID 797, 2007; actives 0.056% (n = 200,000);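 active = inhibition of 50% or more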;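 also: controls were vehicle for no effect and a reference inhibitor for full effect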
RGS16-Gao – modulators of RGS16 binding to Galphao, primary screen, biochemical, human proteins, multiplexed bead flow cytometry; binding response (% of control), % at 10 µM; bead-based flow cytometry RGS16-Galphao binding, fluorescence; actives lie on both sides; actives 0.38% (n = 220,000);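 active = below 25% or above 175%, edge rows of some plates excepted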;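 also: Galphao activated by GDP with aluminum fluoride before binding; 100% = wells without compound and 0% = beads without RGS; some results beyond the cut were filed as inactive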
Target sequence (O15492 whole entry, looked up): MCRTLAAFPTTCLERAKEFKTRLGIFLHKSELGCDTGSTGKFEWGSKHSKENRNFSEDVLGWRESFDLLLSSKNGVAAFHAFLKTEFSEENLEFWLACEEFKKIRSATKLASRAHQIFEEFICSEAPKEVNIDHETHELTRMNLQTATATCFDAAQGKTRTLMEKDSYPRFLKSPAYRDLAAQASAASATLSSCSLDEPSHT
Target sequence (P09471 whole entry, looked up): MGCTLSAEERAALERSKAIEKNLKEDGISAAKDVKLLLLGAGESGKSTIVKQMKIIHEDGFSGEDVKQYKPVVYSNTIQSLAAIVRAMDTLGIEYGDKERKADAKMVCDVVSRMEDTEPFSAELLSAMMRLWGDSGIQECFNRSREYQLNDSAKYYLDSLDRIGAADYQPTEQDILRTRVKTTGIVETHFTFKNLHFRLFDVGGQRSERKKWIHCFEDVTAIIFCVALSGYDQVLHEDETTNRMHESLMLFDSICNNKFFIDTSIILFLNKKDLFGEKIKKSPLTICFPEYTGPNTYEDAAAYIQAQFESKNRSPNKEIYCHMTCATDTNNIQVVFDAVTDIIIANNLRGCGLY
HSV augment – enhancers of HSV replication in host cells, fold increase, host cell viability | maximum fold increase | actives 0.005% (n = 220,000) | HSV replication augmentation in cells;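 active = peak rise of 1.5-fold or more in the series; inconclusive = self-fluorescent or not available for retest; tested in PC3 cells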;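 also: first round at 10 µM; read as green reporter fluorescence; hits show the peak of a series up to 25 µM; 1 = signal of infected wells without compound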
Insulin prom inh – inhibitors of insulin promoter-driven GFP, primary screen, imaging, TRM-6 cells (human fetal islet line), eGFP reporter, cell count; AID 1273, 2008; inhibition, % at 2 µM; actives 0.9% (n = 130,000); reporter expression induced with tamoxifen;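 active = inhibition above the mean plus 3 SD, with well images judged a real hit on visual review, cut at about 60% in these data, passing the limit was not always enough; inconclusive = inhibition over the cutoff but images rejected on review; inactive = inhibition not above the cutoff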
Insulin prom inh cell count – recorded beside Insulin prom inh, whose call it bears; normalized cell count, %; measured here: cell count, toxicity; reference of the scale not given here;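 cells exposed to compound for 48 h; stained nuclei by imaging scaled within each plate; lower means fewer cells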
HSV augment primary fold – further read-out of HSV augment, marked with its call; fold increase; compound at 10 µM; measured here: primary screen fold increase 10 uM; tested in PC3 cells;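 GFP signal in the first replicate; 1 = infected wells without compound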
An asterisk follows results filed as active; i = inactive; ? = inconclusive; nt = not tested or not shown.

Sequence of screens: GALR2 ag	PKD1 inh	RGS16-Gao	HSV augment	HSV augment primary fold	Insulin prom inh	Insulin prom inh cell count
> O=C(c1ccncc1)N(c1ccc2oc3c(c2c1)CCCC3)S(=O)(=O)c1cccc([N+](=O)[O-])c1
 : -2.2	-11	98	i	0.8	nt	nt
> COc1ccc([N+](=O)[O-])cc1N(CC(O)CN1CCCC1)S(=O)(=O)c1ccc(C)cc1 (centres undefined)
 : nt	8	95	i	0.89	nt	nt
> O=C(/C=C\c1ccc2c(c1)OCO2)Nc1c2c(nn1-c1ccc(Cl)cc1)CSC2
 : -0.5	-9	120	nt	nt	7	89
> Cc1nc(SCC(=O)NC(=O)NCCC(C)C)c2c(-c3cccs3)csc2n1
 : 1.2	-3	100	i	0.83	nt	nt
> CCOC(=O)N1CCN(C(=O)CN(c2ccc(OC)c(OC)c2)S(C)(=O)=O)CC1
 : -1.3	7	103	i	0.88	26	89
> O=C(Cc1ccccc1)Nc1cc(C(=O)c2ccccc2)ccc1N1CCOCC1
 : 0.7	0	101	i	0.96	0	104
> CCN(CC)CCSc1nc(O)c(-c2ccccc2)c(=O)n1-c1ccccc1
 : nt	-1	104	i	1.1	32	95
> O=C(C1CCN(S(=O)(=O)c2ccccc2)CC1)N1CCOCC1
 : -3.3	-1	103	i	1.1	18	126
> CN(C)CCCN(Cc1ccccc1)C(=S)Nc1cccc(C(F)(F)F)c1
 : 0.4	2	99	i	0.89	nt	nt
> Cn1c(=O)c(-c2ccccc2)nn2c3ccccc3nc12
 : 0.5	2	97	i	0.92	22	174
> COc1ccc(NC(=O)CSc2nnc(-c3ccccc3F)n2C2CC2)cc1S(N)(=O)=O
 : nt	0	104	i	1.1	17	158
> O=C(Nc1nccs1)c1cnccn1
 : -2.4	-12	101	i	1	13	139
> COc1ccccc1N1C(=O)c2ccccc2NC1C(OC)OC (centres undefined)
 : -2.1	-1	104	i	0.86	41	125
> O=C(NCc1ccco1)C1CCCN1C(=O)Nc1ccccc1 (centres undefined)
 : nt	1	86	i	0.82	nt	nt
> Cc1ccc(OCC(=O)N2CCN(c3nnc(-c4ccc(C)cc4)c4ccccc34)CC2)cc1
 : -0.9	-5	112	i	0.81	-22	118
> O=C(NC(=S)Nc1ccc2oc(-c3cccnc3)nc2c1)c1cccc(Cl)c1
 : -3.5	-15	99	nt	nt	-14	127
> Cc1nc(-c2cccs2)sc1C(=O)O
 : nt	nt	102	i	0.93	nt	nt
> O=C(O)CCN1C(=O)S/C(=C\c2cccnc2)C1=O
 : nt	nt	105	i	1	nt	nt
> O=C(CC(=O)NN=C1CCCC1)NCCc1ccccc1
 : -1.8	-3	81	i	0.69	nt	nt
> O=C(Nc1cccc(Cl)c1)OCc1ccccn1
 : -1.2	16	102	i	0.99	nt	nt

4 compounds drawn at random from the list so far:
Sequence of screens: GALR2 ag	PKD1 inh	RGS16-Gao	HSV augment	HSV augment primary fold	Insulin prom inh	Insulin prom inh cell count
> Cc1nc(-c2cccs2)sc1C(=O)O
 : nt	nt	102	i	0.93	nt	nt
> O=C(C1CCN(S(=O)(=O)c2ccccc2)CC1)N1CCOCC1
 : -3.3	-1	103	i	1.1	18	126
> Cc1ccc(OCC(=O)N2CCN(c3nnc(-c4ccc(C)cc4)c4ccccc34)CC2)cc1
 : -0.9	-5	112	i	0.81	-22	118
> O=C(/C=C\c1ccc2c(c1)OCO2)Nc1c2c(nn1-c1ccc(Cl)cc1)CSC2
 : -0.5	-9	120	nt	nt	7	89

The list continues:
Sequence of screens: GALR2 ag	PKD1 inh	RGS16-Gao	HSV augment	HSV augment primary fold	Insulin prom inh	Insulin prom inh cell count
> Cc1ccc2c(c1)c1c(n2CC(O)CNC2CCCCC2)CCCC1 (centres undefined)
 : nt	1	104	i	0.76	nt	nt
> COC(=O)[C@H](CC(C)C)NC(=O)N1CCCCC1
 : nt	nt	107	i	0.9	nt	nt
> CC(C)(C)c1ccc(C(=O)CSc2nc3ccccc3c(=O)[nH]2)cc1
 : -0.3	6	-58	i	0.82	-7	126
> Cc1ccc(C)c(N2CCN(C(=O)Cc3c(C(=O)O)[nH]c4ccc(Cl)cc34)CC2)c1
 : nt	nt	103	i	0.95	nt	nt
> CCOC(=O)C1CCN(c2c(NCCCN(CC)c3ccccc3)c(=O)c2=O)CC1
 : 3.7	1	101	i	0.85	42	83
> O=C(COc1ccccc1[N+](=O)[O-])N/N=C/c1ccc(OC(=O)c2ccco2)cc1
 : 0.3	-4	102	i	0.92	39	165
> COc1cc2c(=O)n(Cc3ccccc3)c(=O)n(CC(=O)NCCc3ccccc3)c2cc1OC
 : -2.3	-6	104	i	0.88	-29	87
> COc1ccc(CCNC(=O)CN2C(=O)c3cccc4cccc(c34)C2=O)cc1OC
 : nt	4	105	i	0.98	nt	nt
> O=C(Nc1ccc(N2CCOCC2)cc1)C1CC(=O)N(c2ccccc2)C1 (centres undefined)
 : nt	-2	103	i	1	25	107
> Cc1ccc(-c2nc(SCC(=O)Nc3ccccc3OC(F)F)c3c(C)c(C(=O)O)sc3n2)cc1
 : nt	nt	104	i	0.92	nt	nt
> CCOC(=O)N1CCN(C(=O)c2ccc3c(c2)ncn3C2CCCC2)CC1
 : -2.3	5	101	i	1.2	nt	nt
> O=C(C1=C[C@H](C2CCCCC2)C[C@H](OCCCCO)O1)N1CCN(Cc2ccc3c(c2)OCO3)CC1
 : nt	1	102	i	1.2	nt	nt
> COc1cc(/C=N/NC(=O)C2CCN(CC(O)COCc3ccccc3)CC2)ccc1O (centres undefined)
 : nt	-3	97	i	0.96	nt	nt
> CCOC(=O)CSc1nnc([C@@H](NC(=O)OC(C)(C)C)C(C)C)o1
 : -2.2	-7	99	i	0.91	19	109
> COc1cccc(N(C(=O)CS(=O)CC(=O)Nc2ccc(F)cc2)C(C(=O)NC2CCCCC2)c2cccs2)c1 (centres undefined)
 : 2.0	-1	123	i	0.99	-38	118
> Cc1ccc(OCC(O)CNC(=O)c2ccccc2C(=O)O)cc1 (centres undefined)
 : -1.7	-1	104	i	0.93	-3	64
> COC(=O)COc1ccc(S(=O)(=O)N2CCN(c3ccccc3F)CC2)cc1C
 : -0.9	3	103	i	0.96	11	71
> O=C(NCc1ccco1)c1cc(-c2ccccc2)nc2ccccc12
 : 1.9	-4	87	i	0.97	nt	nt
> COC(=O)c1ccc(CN2CCN(C3CCCC3)C(CCO)C2)cc1 (centres undefined)
 : nt	11	107	i	1.3	nt	nt
> Cc1c(NC(=O)OCCNC(=O)COc2ccc(Cl)cc2Cl)sc(=S)n1C
 : -0.5	7	99	i	1.1	-22	123
> O=C(N/N=C/c1cc(Br)cc(Br)c1O)c1ccncc1
 : nt	-6	91	i	1.1	25	59
> Cc1ccccc1NC(=O)c1cnn(-c2ccccc2)c1NC(=O)c1ccco1
 : -0.5	-11	nt	i	1.1	nt	nt
> O=C(Cn1ncc(N2CCOCC2)c(Cl)c1=O)c1ccc(Cl)cc1
 : nt	-3	101	i	0.87	nt	nt
> CCCCC1(CCCC)NC(=S)N(Nc2ccc(C)cc2)C1=O
 : -1.7	-5	670	i	1	-23	134
> Cc1cc(C)nc(SCC(=O)Nc2ncc3c(n2)CCCC3=O)n1
 : -1.0	-8	103	i	0.88	30	118
> FC(F)(F)c1ccc(Cl)c(NC(=S)NC2CC2)c1
 : -1.0	-2	109	i	0.99	nt	nt
> C=CCOc1ccc(/C(CC)=N/O)c(OC)c1
 : -1.4	-6	101	i	1	32	71
> COc1ccc(CNC(=O)C/C(C)=N/NC(=O)Cc2ccc(OC)c(OC)c2)cc1
 : -0.4	-1	33	i	1.1	-14	114
> O=C(NC1CCCCC1)N1CCc2ccccc2C1
 : nt	-3	106	i	1.1	-64	99
> Cc1cc(C(=O)NC(=S)Nc2ccccc2N2CCOCC2)ccc1[N+](=O)[O-]
 : -0.2	-3	67	i	0.95	-3	87
> COCCNC(=O)/C(C#N)=C/c1cc(C)n(C2CCCCC2)c1C
 : nt	-5	101	i	0.86	nt	nt
> O=C(NCc1cccnc1)c1cccn2c(=O)c3sccc3nc12
 : -0.4	13	112	i	0.83	nt	nt
> CC(=O)O[C@H]1CC[C@@]2(C)C(CCC3C2CC[C@]2(C)OC(=O)CCC32)C1 (some centres undefined)
 : 1.6	3	113	i	0.94	26	182
> O=C(Nc1nccs1)c1cc(S(=O)(=O)N2CCOCC2)ccc1Cl
 : nt	nt	115	i	1.1	nt	nt
> COC(=O)[C@@H]1C[C@@]2(O)[C@H](O)[C@H](O)[C@H](O)C[C@H]2N1CC1CC1
 : nt	nt	96	i	1.1	nt	nt
> Cc1cccc(C)c1Nc1nnc(SCc2nc3ccccc3c(=O)[nH]2)s1
 : 0.0	5	105	i	0.93	-77	80
> O=C(Nc1ccccc1C(=O)O)c1cncc(Br)c1
 : -0.6	-11	92	i	0.95	17	51
> Nc1nc(SCC(=O)Nc2ccc(Oc3ccccc3)cc2)n[nH]1
 : -1.3	-13	92	i	1	33	171
> Cc1ncoc1C(=O)N1CCCC(C(=O)c2cccc(OC(C)C)c2)C1 (centres undefined)
 : nt	4	108	i	1	nt	nt
> CSc1ccccc1NC(=S)Nc1ccc(S(N)(=O)=O)cc1
 : nt	2	110	i	1	nt	nt
> CCOc1cc(C(=O)OCC(=O)c2c(N)n(C)c(=O)n(C)c2=O)cc(OCC)c1OCC
 : -0.9	0	96	i	0.8	15	53
> Cc1ccc(O)c(C=Nc2ccc3[nH]ncc3c2)c1
 : -1.3	2	105	i	1	-17	77
> Cc1cc(N2CCN(C)CC2)nc2ccc(NC(=O)CCC(=O)NCCC(C)C)cc12
 : nt	6	98	i	0.98	nt	nt
> O=C1NC2=C(CCc3ccccc32)C(c2ccc(Br)cc2)N1 (centres undefined)
 : 0.6	0	101	i	0.82	47	102
> C=CCOc1ccc(C2NC(=S)NC(C)=C2C(=O)c2ccccc2)cc1OC (centres undefined)
 : -1.1	-3	97	i	1	nt	nt
> Cc1cc(Oc2ccc(N)cn2)ccc1Cl
 : nt	nt	99	?	nt	nt	nt
> Cc1ccc(-c2noc(CCC(N)=O)n2)cc1
 : -1.7	0	81	i	0.94	9	66
> FC(F)Oc1ccc(NC(=S)NN2CCOCC2)cc1
 : -1.1	5	99	i	0.91	17	96
> Nc1nc(SCC(=O)N2CCCCC2)[nH]c(=O)c1NC(=O)c1cccs1
 : nt	nt	105	i	1.2	nt	nt
> CCC(=O)Nc1cc(C(=O)O)ccc1S(=O)(=O)c1ccc(C)cc1
 : 0.0	-13	107	i	0.98	33	122
> Cc1ccc2sc(C)[n+](CCO)c2c1
 : nt	-6	94	i	0.99	-6	118
> Cc1noc(/C=C/N(C)C)c1S(=O)(=O)N1CCCC(C(=O)N2CCc3ccccc32)C1 (centres undefined)
 : -0.6	2	nt	nt	nt	nt	nt
> O=C(NC(=S)Nc1ccc(S(=O)(=O)Nc2nccs2)cc1)c1ccc(F)cc1
 : 0.2	2	101	i	1.1	nt	nt
> CCOc1ccccc1NC(=O)c1cc(SC)ccc1Cl
 : nt	-3	103	nt	nt	14	139
> C/C(N)=C(/C#N)C(=O)COC(=O)c1cc(-c2ccc(Br)cc2)nc2ccccc12
 : -0.4	1	89	i	0.9	nt	nt
> CCCCc1ccc(NC(=S)NCCN2CCOCC2)cc1
 : nt	-2	93	i	0.92	nt	nt
